# BJeLR lethal: MLPCN primary cell-based screen for lethality selective to Ras in HRASV12 cells. BJeLR (HRASV12) viability, CellTiter-Glo ATP luminescence, 48 h; reference of the scale not given here. inhibition, % (no concentration beside the values). 300,000 compounds, 0.17% hits;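 active means replicate mean above 50%; inconclusive means above 50% but judged a plate artefact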;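 further: 50 nL library stock added to about 25 µL; numbers are from one replicate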
# Mtb hypoxia inh: PubChem AID 1159583; M. tuberculosis hypoxia-regulated fluorescent reporter, fluorescence; fluorescence inhibition, % (concentration not given with the values); 300,000 compounds, 0.1% hits;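 active means 35 to 45% if threefold the growth effect, above 45% if 1.5-fold the growth effect; inactive means the rest, general growth blockers included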;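 further: wells of about 50 µL received 100 nL stock; 0% = vehicle wells and 100% = reference inhibitor wells; whole bacteria with a GFP reporter of the hypoxia response; strong numbers were not always called active; many hits fall short of the cut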
# PrP 5UTR inh: inhibition of PrP 5' UTR reporter expression; inhibition, % (test concentration not listed); 340,000 compounds, 0.35% hits; cell-based PrP 5' UTR mRNA reporter, plate reader;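 active means every replicate at 50% or more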;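 further: 0 = median of the neutral control wells; tested in H4 reporter cells; numbers are from one replicate; inactives centre near -14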
# Autofluor counter: counter-screen for toxin protease inhibitors: compound fluorescence; compound autofluorescence counterscreen, microsphere flow cytometry; active compounds read high; fluorescence intensity (test concentration not listed); 360,000 compounds, 3.1% hits; AID 624483;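 active means at least 3 SD above the mean of all compounds, about 16000 in these data; inconclusive means too few beads counted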;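 further: 100 nL of 1 mM stock went into each well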
# Sa RN4220 lethal: growth inhibition of S. aureus RN4220, primary screen, OD600 | 16 h | inhibition, % (test concentration not listed) | 330,000 compounds, 0.33% hits | AID 1259311, 2017;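 active means z-score of -3 or lower and OD600 up to 0.18 on both plates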;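 further: plate controls were untreated cells for no effect and reference antibiotic for full effect; stock transfer was 100 nL into about 80 µL; one replicate is shown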
# Sa ugtP lethal: growth inhibition of ugtP-null S. aureus, primary screen, RN4220 ugtP deletion, OD600. 16 h; some inactives read as strong as hits. growth inhibition, % (no concentration beside the values). 330,000 compounds, 0.54% hits;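 active means z-score under -3 and OD600 up to 0.15 on both plates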;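 further: plate controls were untreated wells for no effect and antibiotic for full effect; wells of about 80 µL received 100 nL stock; the first replicate is given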
# Mtb hypoxia inh growth: recorded beside Mtb hypoxia inh, whose call it bears; growth inhibition, %; measured here: M. tuberculosis growth (absorbance);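 0% = vehicle and 100% = reference antibiotic; read after six days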
# * marks the source's active call; other numbers are inactive results; u = inconclusive; x = no result given.
SMILES,BJeLR lethal,Mtb hypoxia inh,Mtb hypoxia inh growth,PrP 5UTR inh,Autofluor counter,Sa RN4220 lethal,Sa ugtP lethal
CC(C)CNC(=O)COC(=O)c1ccc2c(c1)C(=O)N(Cc1ccco1)C2=O,-10,-2,0,-19,3053,1.9,2
Cc1c(NC2=NC3(CCCCC3)Cc3ccccc32)c(=O)n(-c2ccccc2)n1C,2,6,3,3,2582,1.8,-5
Clc1ccc(CSc2cc3c(nn2)-c2ccccc2CC3)cc1Cl,-3,x,x,-17,5311,-9.5,4
Cc1ccc(-n2c(SCC(=O)N(C)C3CCS(=O)(=O)C3)nc3ccccc3c2=O)cc1 (stereo unspecified),9,5,7,-25,4485,1.2,-6
CCN(C(=S)NC(=O)c1ccccc1Br)C1CCCCC1,-1,-1,-2,-2,2604,3.3,-2
COC(=O)c1c(NC(C)=O)sc(C(=O)Nc2ccccc2)c1C,-5,19,12,-14,3117,6.5,0
Cc1ccc(NC(=O)CCC(=O)OC(C)C(=O)c2ccccc2)cc1 (stereo unspecified),-6,16,8,-14,3079,4.5,0
CCOC(=O)C(C)Sc1nc(-c2ccco2)cc(C(F)(F)F)c1C#N (stereo unspecified),3,-6,3,0,4409,2.4,10
COc1ccc(NC(=O)CN(c2ccccc2)S(=O)(=O)N(C)C)cc1OC,3,8,6,-20,7677,5.7,-2
C=CCn1c(C(CC(C)C)CC(C)O)n[nH]c1=S (stereo unspecified),4,-6,-5,-2,2614,3.3,6
Cc1ccc(-n2nc3c(c2NC(=O)CC(C)C)CS(=O)(=O)C3)cc1,-5,1,1,-23,5796,1.9,-1
O=C(NCc1ccc(Cl)cc1)C1CCCN1C(=O)Nc1ccccc1 (stereo unspecified),5,9,-7,-39,4100,0.1,9
COc1cccc(N/C(SC)=C(/C#N)C(=O)NCc2cccs2)c1,-21,4,-11,-11,3486,-1.7,7
CCCc1cc(=O)[nH]c(SCC(=O)Nc2cccc(S(=O)(=O)N3CCOCC3)c2)n1,x,-7,7,-6,3511,-0.3,-2
Cc1cc(C)cc(C(=O)OCC(=O)NCC(F)(F)F)c1,-1,1,4,-3,2416,1.5,3
COc1cccc(CNCC2CCCO2)c1 (stereo unspecified),-2,18,10,-25,3799,1.1,3
CCOC(=O)C(=NO)C(C)=NNC(C)=O,x,6,-1,x,x,4.7,9
Cc1ccc(C(=O)CSc2nnc(-c3cccs3)n2C)o1,-2,2,0,-8,5225,5.0,-5
CCOC(=O)N/N=C1\CC(C)CC(C)(C)C1 (stereo unspecified),-5,x,x,-21,9822,x,x
O=C(COc1ccc([N+](=O)[O-])cc1)Nc1ccc2[nH]c(=O)[nH]c2c1,4,-7,-4,-10,x,2.8,1

# In the list so far, 2 contain a cyano group.
SMILES,BJeLR lethal,Mtb hypoxia inh,Mtb hypoxia inh growth,PrP 5UTR inh,Autofluor counter,Sa RN4220 lethal,Sa ugtP lethal
CCOC(=O)C(C)Sc1nc(-c2ccco2)cc(C(F)(F)F)c1C#N (stereo unspecified),3,-6,3,0,4409,2.4,10
COc1cccc(N/C(SC)=C(/C#N)C(=O)NCc2cccs2)c1,-21,4,-11,-11,3486,-1.7,7

# Continued:
SMILES,BJeLR lethal,Mtb hypoxia inh,Mtb hypoxia inh growth,PrP 5UTR inh,Autofluor counter,Sa RN4220 lethal,Sa ugtP lethal
CCOC(=O)N1CCN(C(=O)C2CCN(S(=O)(=O)c3ccccc3)CC2)CC1,2,19,7,-45,10170,3.4,9
COC(=O)[C@@H]1C[C@@]2(O)[C@@H](O)[C@@H](O)[C@@H](O)C[C@H]2N1Cc1ccc(C)s1,-8,x,x,-10,3160,x,x
CC(C)(C)C1CCC(=NNC(=O)c2cc(-c3ccccc3)n[nH]2)CC1 (stereo unspecified),0,-1,-2,-14,10657,4.1,15
O=C(NCc1ccccc1Cl)C1CCN(S(=O)(=O)c2ccc(N3CCCC3=O)cc2)CC1,7,-7,6,-4,5495,0.4,-1
Cc1cc(C)n(-c2nc(NC(C)C)nc(NC(C)C)n2)n1,1,-6,13,-18,11776,12,-7
CCn1c(SCC(=O)N2CCOCC2)nnc1-c1cccs1,7,x,x,-3,4863,-5.4,-7
CC(=O)c1cccc(NC(=O)c2ccc(N(Cc3ccccc3C)S(C)(=O)=O)cc2)c1,3,x,x,-4,2751,1.8,-4
COc1ccc([N+](=O)[O-])cc1NC(=O)c1ccc(CN(c2ccc(C)c(C)c2)S(C)(=O)=O)cc1,-1,1,6,-13,2094,-6.8,-16
Oc1ccccc1-c1csc(-c2ccccc2)n1,1,9,0,-135,3337,-11,68
CCCCn1c(N)c(N(CCOC)C(=O)c2cc3c(s2)CCCCC3)c(=O)[nH]c1=O,-4,-3,-1,-10,u,0.9,1
Cc1ccc(C(=O)OCC(=O)NC(=O)c2cccn2C)cc1,-16,2,5,-25,10640,1.5,0
CCOC(=O)C1(CCc2ccccc2)CCN(Cc2cccc3c2OCO3)CC1,3,-5,-5,-14,3425,-1.7,-5
O=C(CNc1cc(S(=O)(=O)N2CCCC2)ccc1OCC(F)(F)F)Nc1ccc(SC(F)F)cc1,1,-4,5,-2,2589,-4.8,-15
O=C1N(Cc2ccccc2)CCCC12CCCN(Cc1ccccc1)C2=O,-5,12,11,-25,2846,0.8,3
Cc1cc(-c2ccccc2)n2ncc(C#N)c2n1,6,11,3,1,4299,3.3,9
CC1CCCC(NC(=O)COC(=O)[C@@H]2CC(O)CN2S(=O)(=O)c2ccc3c(c2)OCCO3)C1C (stereo partly specified),12,2,-1,-16,2092,4.1,6
O=C(CSc1nc2ccccc2n1-c1ccccc1)NCC1CCCO1 (stereo unspecified),-1,x,x,-9,3560,0.3,-6
COc1ccc(NC(=O)CS(=O)(=O)c2ccccc2)cc1,-1,11,-2,-6,3585,2.8,10
Cc1cc(NC(=O)CCC(=O)N(C(C(=O)NC(C)(C)C)c2ccccc2Cl)C(C)(C)C)no1 (stereo unspecified),-3,-13,0,-24,5443,-2.3,3
CC(C)[C@H](NC(=O)N1c2ccccc2NC(=O)[C@@H]1C(C)C)C(=O)N[C@@H](C(=O)O)c1ccccc1,6,x,x,-13,5919,1.0,-18

# Part of the list above, reformatted.
# Every second line gives: BJeLR lethal | Mtb hypoxia inh | Mtb hypoxia inh growth | PrP 5UTR inh | Autofluor counter | Sa RN4220 lethal | Sa ugtP lethal
CC(C)(C)C1CCC(=NNC(=O)c2cc(-c3ccccc3)n[nH]2)CC1 (stereo unspecified)
  0 | -1 | -2 | -14 | 10657 | 4.1 | 15
O=C(NCc1ccccc1Cl)C1CCN(S(=O)(=O)c2ccc(N3CCCC3=O)cc2)CC1
  7 | -7 | 6 | -4 | 5495 | 0.4 | -1
Cc1cc(C)n(-c2nc(NC(C)C)nc(NC(C)C)n2)n1
  1 | -6 | 13 | -18 | 11776 | 12 | -7
CCn1c(SCC(=O)N2CCOCC2)nnc1-c1cccs1
  7 | x | x | -3 | 4863 | -5.4 | -7
CC(=O)c1cccc(NC(=O)c2ccc(N(Cc3ccccc3C)S(C)(=O)=O)cc2)c1
  3 | x | x | -4 | 2751 | 1.8 | -4
COc1ccc([N+](=O)[O-])cc1NC(=O)c1ccc(CN(c2ccc(C)c(C)c2)S(C)(=O)=O)cc1
  -1 | 1 | 6 | -13 | 2094 | -6.8 | -16
Oc1ccccc1-c1csc(-c2ccccc2)n1
  1 | 9 | 0 | -135 | 3337 | -11 | 68
CCCCn1c(N)c(N(CCOC)C(=O)c2cc3c(s2)CCCCC3)c(=O)[nH]c1=O
  -4 | -3 | -1 | -10 | u | 0.9 | 1
Cc1ccc(C(=O)OCC(=O)NC(=O)c2cccn2C)cc1
  -16 | 2 | 5 | -25 | 10640 | 1.5 | 0
CCOC(=O)C1(CCc2ccccc2)CCN(Cc2cccc3c2OCO3)CC1
  3 | -5 | -5 | -14 | 3425 | -1.7 | -5
O=C(CNc1cc(S(=O)(=O)N2CCCC2)ccc1OCC(F)(F)F)Nc1ccc(SC(F)F)cc1
  1 | -4 | 5 | -2 | 2589 | -4.8 | -15
O=C1N(Cc2ccccc2)CCCC12CCCN(Cc1ccccc1)C2=O
  -5 | 12 | 11 | -25 | 2846 | 0.8 | 3
Cc1cc(-c2ccccc2)n2ncc(C#N)c2n1
  6 | 11 | 3 | 1 | 4299 | 3.3 | 9
CC1CCCC(NC(=O)COC(=O)[C@@H]2CC(O)CN2S(=O)(=O)c2ccc3c(c2)OCCO3)C1C (stereo partly specified)
  12 | 2 | -1 | -16 | 2092 | 4.1 | 6
O=C(CSc1nc2ccccc2n1-c1ccccc1)NCC1CCCO1 (stereo unspecified)
  -1 | x | x | -9 | 3560 | 0.3 | -6

# Continuation:
SMILES,BJeLR lethal,Mtb hypoxia inh,Mtb hypoxia inh growth,PrP 5UTR inh,Autofluor counter,Sa RN4220 lethal,Sa ugtP lethal
CCOC(=O)c1c(NC(=O)c2nc3n(n2)C(C(F)F)CC(C)N3)sc2c1CCCC2 (stereo unspecified),5,-1,1,-18,9150,0.3,18
Nc1nnc(-c2ccccc2)c(-c2ccccc2)n1,-1,9,15,-19,4270,3.4,7
Cc1nnc(-c2ccccc2)nc1N1CCOCC1,0,18,11,-12,3954,-14,-4
CC/C(=N\NC(=O)Cc1ccc(Br)cc1)c1cccs1,3,x,x,-9,5798,x,x
COc1ccccc1N(C)S(=O)(=O)c1ccc(C(=O)O)cc1,-6,13,14,-18,4326,9.3,5
CC1CCN(C(=S)Nc2ccc3nc4n(c(=O)c3c2)CCCCC4)CC1,6,4,11,-36,8305,2.3,6
C#CCOCCOCCOCCNc1nc(N2CCN(C(=O)[C@H](CCCN=C(N)N)n3cc(C(N)[C@H](C)CC)nn3)CC2)nc(N2CCN(C(=O)[C@H](CC(N)=O)n3cc(C(N)[C@@H](C)CC)nn3)CC2)n1 (stereo partly specified),x,-6,5,-9,3847,4.4,-1
Fc1ccc(-c2nnc(SCc3ncc(-c4ccccc4)o3)n2CC2CCCO2)cc1 (stereo unspecified),-11,5,20,-8,3624,27,-12
CC1CCN(c2ccc3c(c2)S(=O)(=O)c2cccc(C(=O)NCc4ccc(F)cc4)c2C3=O)CC1,x,7,9,-13,3007,8.8,-7
Cc1ccc(C(=O)OCC(=O)Nc2sc3c(c2C#N)CCCC3)cc1NC(=O)c1ccco1,9,5,0,-11,3647,-2.3,-15
CCC(C)(C)n1nnnc1C(c1cccs1)N1CCN(Cc2ccccc2)CC1 (stereo unspecified),-10,2,0,-20,8228,1.6,10
Cc1ccc(-n2cc(C(C)(C)C)[nH]c2=S)cc1,9,6,8,-24,4436,1.1,5
Cc1ccc(S(=O)(=O)NNC(=O)c2ccccc2O)cc1,-1,6,1,-11,2084,2.9,5
O=C(N/N=C/c1ccc(-c2ccccc2[N+](=O)[O-])o1)c1cncc(Br)c1,3,x,x,-19,1994,x,x
C=CCn1c(SC(C)C(=O)NCc2ccc3c(c2)OCO3)nnc1C1CCCCC1 (stereo unspecified),-8,2,4,-32,10593,3.9,14
O=C1c2ccccc2-c2ccc(C(=O)N3CCOCC3)cc21,-7,5,5,-9,4800,0.3,-3
CCOC(=O)Cn1c(N2CCOCC2)nc2c1c(=O)[nH]c(=O)n2C,12,-1,1,-8,2909,-11,3
CS(=O)(=O)N(CC(=O)NCCc1ccccc1)C1CCCCC1,-10,5,9,-11,18975*,2.7,1
Cn1ccc2cc(-c3ccc4ncnc(NCc5cccs5)c4c3)ccc21,x,14,19,-9,4132,-0.8,-43
Cc1ccc(CN2CCCN(Cc3c(C)cc(C)cc3C)S2(=O)=O)cc1,7,-12,-3,3,3351,-0.6,30
Cc1ccc(/C=N/N=C2/NC(=O)C(CC(=O)Nc3ccc(Cl)cc3)S2)o1 (stereo unspecified),-14,x,x,-82,7980,x,x
COc1ccc(CNC(=O)C2CCC(CNC(=O)[C@@H]3Cc4ccccc4CN3)CC2)cc1 (stereo partly specified),-6,7,-6,0,4380,-3.3,-2
Cc1ccc(S(=O)(=O)N2CCOCC2)cc1C(=O)Nc1ccc(-c2cn3ccsc3n2)cc1,2,x,x,-16,4773,-0.3,0
O=C(Oc1ccc(F)cc1C(=O)/C=C/c1cccs1)c1cccc([N+](=O)[O-])c1,0,x,x,-46,2799,4.8,7
